# LT uptake inh = blocks cellular internalization of anthrax lethal toxin; Cells, anthrax lethal toxin internalization, FRET ratio (460/530); Potency, µM (titrated, usually from 40 µM), without a hit: at the highest dose activity change, negative = inhibition, hits mostly inhibitors; 0.67% of 70,000 active; active = well fitted falling ratio curve with the 530 nm signal flat; inconclusive = other ratio curves, or a change in one channel alone; inactive = flat curves in the ratio and both channels; the % refers to the ratio; also: % is scaled to controls: 0 for no effect and ±100 for the full control effect; nearly all actives have a fitted effect of over 50% in size; tested in ME-180 cells; beta-lactamase reporter
# Prx2 Sm inh = Schistosoma mansoni Prx2 inhibition | S. mansoni Prx2 activity coupled to TGR/GSH (TGR is thioredoxin glutathione reductase), NADPH fluorescence loss, qHTS; some inactives read as strong as hits | Potency, µM | 0.07% of 65,000 active; active means full or partial inhibition curve with a strong effect at the top dose; inconclusive means weaker partial or single-point curve; inactive means no accepted curve; also: series up to 57 µM; many of its hits are not listed in these tables
#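 Coupled assay in which S. mansoni TGR passes NADPH reducing equivalents via glutathione to Prx2, which reduces H2O2. Compounds were preincubated 15 min at room temperature with 25 nM TGR/50 nM Prx2 mix. Kinetic NADPH fluorescence loss (ex 365/em 450 nm) was monitored.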
# * marks the source's active call; other numbers are inactive results; ? = inconclusive; · = no result given; & = joins results of further samples; [ ] = dose if it differs, or a comment. Potency is read from the fitted curve at half-maximal effect. These rows are one share of the data; the hit share may differ from the screen's.
mol | LT uptake inh | Prx2 Sm inh
CCOC(=O)c1c(N)nn(C(=O)CC)c1-c1ccccc1 | ? | >57
CCCOC(=O)C1C2C=CC3(CN(c4cccc(Cl)c4)C(=O)C13)O2 (centres undefined) | 0% | >57
O=C(COc1ncnc2sccc12)N1CCc2ccccc2C1 | 4% | >57
COC(=O)Nc1ncc(CN2CCc3ccccc3C2)s1 | ? | >57
CCOC(=O)C(NC(=O)Nc1ccc(F)cc1)(OCC)C(F)(F)F (centres undefined) | ? | >57
O=C(O)CCC(=O)Nc1ccc(N2CCCCCC2)cc1 | 4% | >57
Cn1c(=O)[nH]c(=O)c2c1nc(CN1CCOCC1)n2CCCc1ccccc1 | 5% | >57
COCCn1c(SCC(=O)Nc2nnc(C)s2)nnc1-c1cc2ccccc2cc1O | 7% | >57
COC(=O)c1ccccc1NC(=O)C1CCN(S(=O)(=O)c2cc(C)ccc2OC)CC1 | -7% | >57
CC(=O)Nc1nc(=O)c2ccccc2s1 | -13% | >57
CCCn1c(SCc2nc(-c3cccs3)no2)nnc1-c1ccncc1 | 3% | >57
Cc1ccc(OCC(=O)Nc2ccc(O)c(-c3nc4ccccc4o3)c2)cc1 | ? | ·
CC(C)Cn1c(-c2ccc(Cl)cc2)cnc1SCC(=O)N1CCOCC1 | 3% | >57
Nc1nc(C2CC2)c(Sc2sc(N)nc2C2CC2)s1 | -1% | >57
COc1ccc(C2CC(C(F)(F)F)n3ncc(C(=O)O)c3N2)cc1OC (centres undefined) | -7% | >57
N#Cc1nc(-c2ccc(OCc3ccccc3)cc2)oc1NCCN1CCOCC1 | ? | >57
COc1ccc(Cn2nnnc2C(c2ccccn2)N2CCN(c3cc(Cl)ccc3C)CC2)cc1 (centres undefined) | ? | >57
Cc1ccc(S(=O)(=O)n2ccnc2)cc1C | 7% | >57
Cc1cc(C)n(-c2nc3ccccc3n3cnnc23)n1 | ? | >57
O=S(=O)(c1ccc(S(=O)(=O)N2CCCC2)cc1)N1CCCCCC1 | -3% | >57

# Next part.
mol | LT uptake inh | Prx2 Sm inh
CN(C(=O)c1ccco1)C1(c2ccccc2Cl)CCCCC1=O (centres undefined) | -6% | >57
CCOC(=O)Cc1cnc(NC(=O)Cn2nnc(-c3ccc(OCC)cc3)n2)s1 | -8% | >57
NC(=O)c1cc(-c2ccccc2)sc1NC(=O)Cc1ccc(S(=O)(=O)N2CCOCC2)s1 | ? | >57
CC/C=C\C/C=C\C/C=C\CCCCCCCC(=O)O | 1% | ·
Cc1cc(NC(=O)c2c(F)c(F)c(F)c(F)c2F)no1 | ? | >57
CCOc1ccc(N2CC(C(=O)NCCCN3CCOCC3)CC2=O)cc1 (centres undefined) | ? | >57
COc1cccc(NC(=O)CSc2nc3c(c(-c4ccco4)c2C#N)CCCC3)c1 | · | >57
Cn1c(NC(=O)C2c3ccccc3Oc3ccccc32)cc(=O)n(C)c1=O | -8% | >57
Cc1nc(N)sc1-c1csc(Nc2ccccc2)n1 | -14% | >57
CC(=O)C(Sc1nc(N2CCOCC2)nc(N2CCOCC2)n1)C(=O)Nc1ccccc1 (centres undefined) | -3% | >57
CC(C)[C@@]1(NC(=O)[C@H]2C[C@H]3c4cccc5[nH]cc(c45)C[C@@H]3N(C)C2)O[C@]2(O)[C@H]3CCCN3C(=O)[C@H](Cc3ccccc3)N2C1=O | ? | >57
O=C(O)[C@@H]1C[C@H]2C[C@@H](CP(=O)(O)O)CC[C@H]2CN1 | ? | >57
CN(C)c1ccc(CNC(=O)C2CCN(S(=O)(=O)c3ccc4c(c3)CCC(=O)N4)CC2)cc1 | -10% | >57
O=c1cnc2cnc(Nc3ccccc3)nc2n1CCc1ccccc1 | -13% | >57
CCCCCc1c(C)nc(Nc2ccc(F)cc2)[nH]c1=O | 3% | >57
O=C(N/N=C\c1ccccc1O)c1ccccc1O | ? | >57
CC1CN(C(=O)C(C)Sc2nc3ccccc3s2)CC(C)O1 (centres undefined) | -5% | >57
Cc1nc2ccc(S(=O)(=O)NCC(=O)N3CCOCC3)cc2s1 | 7% | >57
CCC(=O)Nc1ccccc1-c1nnn(CC(=O)N2c3ccccc3CC2C)n1 (centres undefined) | -7% | >57
CCOC(=O)COc1ccc(S(=O)(=O)N2CCN(c3ccccc3F)CC2)cc1 | -21% | >57

# More records
mol | LT uptake inh | Prx2 Sm inh
CCOc1ccc(C(=O)NCCCN(CC)CC)cc1 | -16% | ·
COc1ccccc1N1CCN(c2nc(N)c(C#N)c(CC#N)c2C#N)CC1 | ? | >57
CC(C)=CCC1=C(OCC(=O)O)C(=O)c2ccccc2C1=O | ? | >57
Cc1cc(NC(=O)c2ccccc2)ncc1NC(=O)c1ccco1 | -16% | >57
CCOc1ccc(-c2nc(-c3ccccc3C)no2)cc1 | -9% | >57
CCOc1ccc2[nH]c(=O)c(C(c3nnnn3CC3CCCO3)N3CCc4ccccc4C3)cc2c1 (centres undefined) | 3% | >57
CCOC(=O)c1ccc(NC(=O)C23CCC(C)(C(=O)O2)C3(C)C)cc1 (centres undefined) | -4% | ·
c1ccc(-c2nnc3sc(CN4CCc5ccccc54)cn23)cc1 | -13% | >57
O=C(COc1cccc(C(F)(F)F)c1)NCCCN1CCCC1=O | 15% | >57
Cc1nnc(SCC(=O)NC(=O)NC(C)(C)C)n1N | -7% | >57
Cc1cc(=O)oc(C)c1C(=O)NCCCN1C(C)CCCC1C (centres undefined) | · | >57
NC(=O)c1c(NC(=O)CN2CCCC2)sc2c1CCCC2 | -5% | >57
CCOC(=O)/C(C(N)=NCCO)=C(/O)c1ccccc1 | 12% | >57
Cc1sc2ncn(CCC(=O)O)c(=O)c2c1C | 6% | >57
Cc1ccc(OCc2nnc(SCCN3CCOCC3)n2C)cc1 | 1% | >57
COc1ccc(OC)c(NC(=O)CSc2nnc(Cn3c(=O)sc4ccccc43)n2C)c1 | -1% | >57
CS(=O)(=O)N(CC(=O)NC1CCCCCC1)Cc1ccccc1 | · | >57
COc1ccc(-c2ccc(-c3noc(-c4ccccc4OC)n3)c(OC)n2)cc1 | 6% | >57
Cc1ccc(C(C)(C)C)cc1 | -8% | ·
Cn1c(=O)oc2cc(S(=O)(=O)NCCC(=O)N3CCc4ccccc4C3)ccc21 | 11% | >57

# Reformatted with values under each structure: part of the list above.
# Each structure is followed by: LT uptake inh	Prx2 Sm inh
Cn1c(NC(=O)C2c3ccccc3Oc3ccccc32)cc(=O)n(C)c1=O
    -8%	>57
Cc1nc(N)sc1-c1csc(Nc2ccccc2)n1
    -14%	>57
CC(=O)C(Sc1nc(N2CCOCC2)nc(N2CCOCC2)n1)C(=O)Nc1ccccc1 (centres undefined)
    -3%	>57
CC(C)[C@@]1(NC(=O)[C@H]2C[C@H]3c4cccc5[nH]cc(c45)C[C@@H]3N(C)C2)O[C@]2(O)[C@H]3CCCN3C(=O)[C@H](Cc3ccccc3)N2C1=O
    ?	>57
O=C(O)[C@@H]1C[C@H]2C[C@@H](CP(=O)(O)O)CC[C@H]2CN1
    ?	>57

# Retrieved by compound from the list above (4):
mol | LT uptake inh | Prx2 Sm inh
c1ccc(-c2nnc3sc(CN4CCc5ccccc54)cn23)cc1 | -13% | >57
Cc1sc2ncn(CCC(=O)O)c(=O)c2c1C | 6% | >57
Cc1ccc(C(C)(C)C)cc1 | -8% | ·
CCOC(=O)c1ccc(NC(=O)C23CCC(C)(C(=O)O2)C3(C)C)cc1 (centres undefined) | -4% | ·

# Additional entries:
mol | LT uptake inh | Prx2 Sm inh
O=C1CCCc2c1cc(C(=O)NCc1ccco1)c(=O)n2-c1ccc(Cl)cc1 | -12% | >57
Cc1csc(NC(=O)CSc2nnc(-c3ccc(S(=O)(=O)N4CCCC4)cc3)o2)n1 | 1% | >57
CCCCn1c(SCc2cccnc2)nc2c1c(=O)n(C)c(=O)n2C | 1% | >57
CCCCOC(=O)C(C)Nc1n[nH]c(=O)[nH]c1=O (centres undefined) | -1% | >57
CC12CCC(c3c(C(=O)Nc4nccs4)nn(-c4ccccc4)c31)C2(C)C (centres undefined) | ? | >57
CCC(=O)Nc1ccc(NC(=O)CSc2nnnn2CC)cc1C | -6% | >57
CCCc1nc2c(o1)CC(CC(C)SCC)CC2=O (centres undefined) | 14% | >57
CC(C)NC(=O)C1CCN(C(=O)N(C)C)CC1 | 6% | >57
CCOc1c(C#N)c(C#N)c2nc(C)cc(C)n12 | -12% | >57
Cc1cccc2cc3c(NC(=O)CC(C)C)nn(C)c3nc12 | -13% | >57
COc1ccccc1NC(=O)CSc1nnc(CC(=O)Nc2ccccc2)n1C | -4% | >57
O=C(C1COc2ccccc2O1)N1CCCC1 (centres undefined) | -2% | ·
O=C(Nc1cc(NC(=O)c2ccccc2)c(C(=O)O)cc1C(=O)O)c1ccccc1 | 4% | ·
CCOC(=O)C(NC(=O)c1ccccc1OCC)(Nc1ncccn1)C(F)(F)F (centres undefined) | 18% | >57
CCOC(=O)Cn1c(-c2nonc2NC(=O)c2ccccc2F)nc2ccccc21 | ? | >57
O=C(Cn1c(N2CCN(c3ccccc3)CC2)nc2ccccc21)c1ccccc1 | -21% | >57
CCn1c(SCC(=O)N2CCCc3ccccc32)nnc1-c1c[nH]c2ccccc12 | -20% | >57
CCS(=O)(=O)n1nc(-c2ccc(OC)cc2)nc1SC | -10% | >57
COc1ccc(CNc2ncncc2-c2cccc(C#N)c2)c(OC)c1 | -7% | >57
O=C(O)CC1CCCC(c2ccccc2)C1=O (centres undefined) | 2% | >57

# Additional compounds follow:
mol | LT uptake inh | Prx2 Sm inh
COc1cccc(Nc2ncc3nc(-c4ccc(F)cc4)c(=O)n(C)c3n2)c1 | ? | ?
COc1ccc(NC(=O)CC(=O)Nc2ccc(OC)cc2OC)c(OC)c1 | -6% | >57
O=c1[nH]c2ccccc2n1C1CCN(CCCC(c2ccc(F)cc2)c2ccc(F)cc2)CC1 | ? | >57&>57&>57
CCOc1ccccc1N(C(=O)CNC(=O)c1ccco1)C(C(=O)NC(C)(C)C)c1ccncc1 (centres undefined) | -5% | >57
Cc1c(C)n(CC(O)CN2CCOCC2)c2ccccc12 (centres undefined) | -5% | >57
O=C(CSc1ccccc1Cl)c1ccco1 | -12% | >57
O=C(c1ccco1)N1CCC(n2nnc3ccccc32)CC1 | ? | >57
CC1=C(C(=O)OCC(C)C)C(c2cc3c(cc2Br)OCO3)NC(=O)N1C (centres undefined) | -9% | >57
CCN(CC)CCCNc1oc(-c2cccc(Cl)c2)nc1C#N | -10% | >57
CC1CCCCN1S(=O)(=O)c1ccc(C(=O)Nc2nnc(-c3ccccc3Cl)o2)cc1 (centres undefined) | 6% | >57
C[C@H]1[C@H](NC(=O)/C(=N/OC(C)(C)C(=O)O)c2csc(N)n2)C(=O)N1S(=O)(=O)O (stereo in doubt) | -3%[3.58 µM] | >57
CCCn1c(C2CC(=O)N(c3cc(OC)ccc3OC)C2)nc2ccccc21 (centres undefined) | -7% | >57
CCOC(=O)N1CCC(NC(=O)Cn2ncn3c(cc4sc(CC)cc43)c2=O)CC1 | 2% | >57
CC(=O)CC(=O)[C@@]1(O)CC[C@@H]2[C@@H]3C=C(C)C4=CC(=O)CC[C@@H]4[C@H]3CC[C@]21C | ? | >57
CNc1nc(-c2ccc(N(C)C)cc2)nc2ccccc12 | ? | >57
c1ccc2c(c1)ncc1cccn12 | -7% | ·
COc1cccc(OC)c1C(=O)Nc1ccc(NC(=O)c2ccco2)cc1 | -12% | >57
CC(Sc1nnc2ccccn12)C(=O)Nc1ccc(Cl)cn1 (centres undefined) | -11% | >57
CCN1CCN(CC(=O)Nc2ccc3c(c2)OCO3)C(=O)C1=O | -2% | >57
Cc1ccc(C2CC(c3cccc(C)c3)n3ncnc3N2)cc1 (centres undefined) | 1% | >57

# Later entries:
mol | LT uptake inh | Prx2 Sm inh
CCCCSc1cc(C)nc2ncnn12 | 3% | ·
C=C(C)Cn1c(CCCNC(=O)C(C)(C)C)nc2ccccc21 | ? | >57
OC(COCc1ccccc1)CN1CCN(c2ccccc2)CC1 (centres undefined) | 0% | >57
CCOC(=O)N1CCN(S(=O)(=O)N(C)C)CC1 | -11% | >57
CC(C)c1ccc(NC(=O)C(c2ccccc2)N2CCOCC2)cc1 (centres undefined) | -22% | >57
COc1cc(-c2cc(=O)c3ccccc3o2)ccc1O | -3% | ·
O=C(CSc1nnc(-c2ccncc2)o1)Nc1ccccc1Cl | ? | >57
COc1ccc(OC)c(-c2cc(C(=O)NCc3cccs3)no2)c1 | -23% | >57
O=C(C1CCN(c2nnc(-n3cccc3)s2)CC1)N1CCN(c2cccc(C(F)(F)F)c2)CC1 | -3% | >57
CC1(C)O[C@H]2O[C@@H]([C@H](O)CON3C(=O)c4ccccc4C3=O)[C@H](O)[C@H]2O1 | -3%[8 µM] | ·
O=C1[C@H]2[C@@H](C(=O)N1c1cc(Cl)cc(Cl)c1)[C@]1(C(=O)Nc3ccccc31)N1CCC[C@@H]21 | -11% | >57
CCN(CC)c1ccc(N)cc1 | -13% | ·
CCOC(=O)C1=C(C)NC2=C(C(=O)CC(C)(C)C2)C1c1ccc2c(c1)CCCN2C (centres undefined) | 19% | >57
O=C(Cc1cc(=O)oc2cc(O)ccc12)NCC1CCC(C(=O)O)CC1 (centres undefined) | ? | >57
COc1ccccc1CN(Cc1cc2cc(C)ccc2[nH]c1=O)Cc1nnnn1CC1CCCO1 (centres undefined) | -27% | >57
CC1(C)Cc2noc(N)c2C(C)(C)N1OC(=O)c1ccco1 | ? | >57
